NPYLR7 ag – activates Aedes aegypti NPYLR7 receptor; HEK293T NPYLR7/Galpha15, GCaMP6s calcium fluorescence; 0.15% of 270,000 active; activation, % at 10 µM; AID 1259423; in the data active = activation above about 40%;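 also: 0% = vehicle and 100% = reference agonist at the receptor; some compounds past the cut are filed as inactive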
NPYLR7 ag max-min – also measured in NPYLR7 ag; calls as there; activation, %; measured here: Max-Min RFU normalised activation; some inactives read as strong as hits;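 span of the calcium signal over five minutes; 0% = vehicle and 100% = native peptide agonist; compound fluorescence can raise it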
An asterisk follows results filed as active; & = joins results of further samples.

[1] CCN(CCNC(=O)C1CC(=O)N(CCOC)C1)c1ccccc1C (centres undefined)
[2] CCCCCc1ccc(C(=O)Nc2ccc(C3SCC(=O)N3c3cc(C)ccc3OC)cc2)cc1 (centres undefined)
[3] COc1ccccc1C(C)N(C)C(=O)c1ccc(CN2CCCC2=O)cc1 (centres undefined)
[4] Cc1ccccc1NC(=O)CSc1nc2c(-c3ccccc3)c[nH]c2c(=O)[nH]1
[5] Cc1nc(N2CCOCC2)sc1C(=O)NNS(=O)(=O)c1cc(F)ccc1F
[6] CN(CCc1ccccc1)C(=O)CCC1CCCOC1 (centres undefined)
Assay by compound,1,2,3,4,5,6
NPYLR7 ag,10,2,12,-1,0,9
NPYLR7 ag max-min,7,10,7,-3,-2,5

[7] COc1cc(OC)nc(N2CC[C@H](CO)[C@H](O)C2)n1
[8] c1ccc(CN2CCC(N3CCc4ccccc4C3)CC2)nc1
[9] O=C(COCc1ccccc1)NCCNc1nc(C2CC2)nc2ccccc12
[10] CC/C=C(\C)c1c(-c2ccccc2)ncn1CCN
[11] COc1ccc(CN(CCc2c[nH]c3ccccc23)C(=O)CN(CC(C)C)C(=O)/C=C/c2ccc([N+](=O)[O-])cc2)cc1OC
[12] COc1ccc2[nH]c3c(c2c1)CCN(C(=O)c1c(-c2c(F)cccc2Cl)noc1C)C3c1ccc(COC(C)=O)o1 (centres undefined)
Assay by compound,7,8,9,10,11,12
NPYLR7 ag,2,-1,3,2,24,4
NPYLR7 ag max-min,-2,-2,7,0,38,-8

[13] CSCCCNC(=S)N(C1CCS(=O)(=O)C1)N(C)C (centres undefined)
[14] Cc1ccc(C(=O)NNC(=O)NCC2(c3ccccc3)CCC2)cc1
[15] O=C(NCCc1ccc(O)cc1)Nc1cccc2c1CCCC2
[16] CCOc1ccccc1-c1nc(Cn2ccn3nc(-c4ccc(C)c(C)c4)cc3c2=O)c(C)o1
[17] COc1ccc(C(CC(=O)NCc2ccncc2)c2cn(C)c3ccccc23)cc1OC (centres undefined)
[18] O=C(Cn1cnnn1)N1CCOC(COc2ccc3c(c2)CCCC3)C1 (centres undefined)
Assay by compound,13,14,15,16,17,18
NPYLR7 ag,2,10,-1,-2,-2,24
NPYLR7 ag max-min,3,10,0,-6,6,26

[19] COc1ccc(-n2c(C)cn3c4c(=O)n(CCCO)c(=O)n(C)c4nc23)c(OC)c1
[20] COC(=O)c1ccsc1N1CCC(N2CCN(C3CCCC3)CC2)C1=O (centres undefined)
[21] CCCc1c(OCCCCc2nn[nH]n2)ccc(C(C)=O)c1O
[22] CON(C)C(=O)c1nnn(-c2cccc(Br)c2)c1C
[23] COc1ccc(-n2nc(C(=O)O)c(=O)n(Cc3ccccc3Cl)c2=O)cc1OC
[24] Cc1cc(C)c(C(=O)CCCC(=O)NC(C)Cn2cccn2)c(C)c1 (centres undefined)
Assay by compound,19,20,21,22,23,24
NPYLR7 ag,5,10,-10,2,19,1
NPYLR7 ag max-min,5,9,-14,-1,33,-1

[25] COc1ccc(S(=O)(=O)Oc2cccc(CN(Cc3ccco3)C(=O)C(C)C)c2)cc1
[26] Cc1cc(C(=O)NNC(C(=O)N2CCCCC2)c2ccccc2)c(C)o1 (centres undefined)
[27] Oc1ccc2c3c1CCCN3CCC2
[28] Cc1ncc(-c2c(-c3ccccc3)ncn2CCc2ccccn2)[nH]1
[29] C/C=C(\C)C(=O)N1CCC(c2nc(-c3c(Cl)cccc3Cl)no2)CC1
[30] Cc1cc(C)c(-c2cc(C(=O)N3CCCC(C(=O)O)C3)no2)c(C)c1 (centres undefined)
Assay by compound,25,26,27,28,29,30
NPYLR7 ag,-7,4,36,24,-8,28
NPYLR7 ag max-min,2,2,35,9,-10,16

18 compounds out of the list, sorted by molecular weight, smallest number first.
[27] Oc1ccc2c3c1CCCN3CCC2
[10] CC/C=C(\C)c1c(-c2ccccc2)ncn1CCN
[15] O=C(NCCc1ccc(O)cc1)Nc1cccc2c1CCCC2
[21] CCCc1c(OCCCCc2nn[nH]n2)ccc(C(C)=O)c1O
[22] CON(C)C(=O)c1nnn(-c2cccc(Br)c2)c1C
[13] CSCCCNC(=S)N(C1CCS(=O)(=O)C1)N(C)C (centres undefined)
[28] Cc1ncc(-c2c(-c3ccccc3)ncn2CCc2ccccn2)[nH]1
[24] Cc1cc(C)c(C(=O)CCCC(=O)NC(C)Cn2cccn2)c(C)c1 (centres undefined)
Assay by compound,27,10,15,21,22,13,28,24
NPYLR7 ag,36,2,-1,-10,2,2,24,1
NPYLR7 ag max-min,35,0,0,-14,-1,3,9,-1

[30] Cc1cc(C)c(-c2cc(C(=O)N3CCCC(C(=O)O)C3)no2)c(C)c1 (centres undefined)
[26] Cc1cc(C(=O)NNC(C(=O)N2CCCCC2)c2ccccc2)c(C)o1 (centres undefined)
[20] COC(=O)c1ccsc1N1CCC(N2CCN(C3CCCC3)CC2)C1=O (centres undefined)
[19] COc1ccc(-n2c(C)cn3c4c(=O)n(CCCO)c(=O)n(C)c4nc23)c(OC)c1
[23] COc1ccc(-n2nc(C(=O)O)c(=O)n(Cc3ccccc3Cl)c2=O)cc1OC
[17] COc1ccc(C(CC(=O)NCc2ccncc2)c2cn(C)c3ccccc23)cc1OC (centres undefined)
[25] COc1ccc(S(=O)(=O)Oc2cccc(CN(Cc3ccco3)C(=O)C(C)C)c2)cc1
[16] CCOc1ccccc1-c1nc(Cn2ccn3nc(-c4ccc(C)c(C)c4)cc3c2=O)c(C)o1
Assay by compound,30,26,20,19,23,17,25,16
NPYLR7 ag,28,4,10,5,19,-2,-7,-2
NPYLR7 ag max-min,16,2,9,5,33,6,2,-6

[12] COc1ccc2[nH]c3c(c2c1)CCN(C(=O)c1c(-c2c(F)cccc2Cl)noc1C)C3c1ccc(COC(C)=O)o1 (centres undefined)
[11] COc1ccc(CN(CCc2c[nH]c3ccccc23)C(=O)CN(CC(C)C)C(=O)/C=C/c2ccc([N+](=O)[O-])cc2)cc1OC
Assay by compound,12,11
NPYLR7 ag,4,24
NPYLR7 ag max-min,-8,38

(next part)
[31] Cc1ccccc1C(=O)NC(C(=O)N1CCCC1)C1CCN(C(=O)c2cccc(F)c2)CC1 (centres undefined)
[32] O=c1c(-c2ccc3c(c2)OCCO3)c(C(F)(F)F)oc2cc(O)ccc12
[33] O=C(O)C1CSCN1C(=O)C1CC(O)CN1S(=O)(=O)c1ccc(F)cc1 (centres undefined)
[34] CC(C)n1cc(C(=O)NCC2CCCCC2)c(=O)c(C(=O)N(C)Cc2cccs2)c1
[35] Cc1nc2ncc3c(=O)n(-c4cccc(C(F)(F)F)c4)ccc3n2n1
[36] CCc1nc2ccc(C(=O)NCCN3CCOCC3)cn2c1N(C)C(=O)c1ccncc1
Assay by compound,31,32,33,34,35,36
NPYLR7 ag,0,5,9,16,0,21
NPYLR7 ag max-min,10,3,10,3,5,17

[37] COc1c(C)cnc(Cn2cc(Cl)c(=O)[nH]c2=O)c1C
[38] Cc1ccccc1[C@H]1[C@@H](C(=O)NC(CO)CO)C[C@@](C)(C(=O)O)N1C
[39] CCCCc1nc(-c2nccn2CCc2cnc[nH]2)c(Cl)[nH]1
[40] O=S(=O)(c1ccccc1)N1CCC2(CC1)OCCO2
[41] CCCCC(C)n1[nH]c(=O)cc1N (centres undefined)
[42] CCCN(Cn1nc(-c2ccccc2Cl)oc1=S)C1CCS(=O)(=O)C1 (centres undefined)
Assay by compound,37,38,39,40,41,42
NPYLR7 ag,6,1,-2,3,-2,-2
NPYLR7 ag max-min,3,1,-2,0,-7,3

[43] Cc1ccnc(NC(=O)c2cccc(S(=O)(=O)NC(C)(C)C)c2)c1
[44] Cc1nn(-c2ccc(F)cc2)c(Oc2ccccc2F)c1CN(CC(O)c1ccccc1)C(C)C (centres undefined)
[45] CC(Oc1ccc(C(=O)/C=C/c2cn(Cc3ccccc3)nc2-c2cccnc2)cc1)C(=O)O (centres undefined)
[46] COc1cccc(NC(=O)C2(C)CCN(C)C2)c1OC (centres undefined)
[47] COCCN(Cc1nc2sc3c(c2c(=O)[nH]1)CCCC3)CC(O)COCc1ccco1 (centres undefined)
[48] Cc1ccn2c(=O)nc(SCc3ccccc3)nc2c1
Assay by compound,43,44,45,46,47,48
NPYLR7 ag,11,-1,0,3,4,1
NPYLR7 ag max-min,8,4,10,3,4,1

[49] Cc1nnsc1C(=O)NCCn1nc(-c2ccccc2)n(C)c1=O
[50] CCOCCC(=O)Nc1nnnn1-c1ccccc1
[51] Cc1cc(OCC(=O)NC(C)c2ccc(S(N)(=O)=O)cc2)ccc1C(C)C (centres undefined)
[52] Cc1cc(C(=O)NC(C2CC2)C2CC2)c(C)n1-c1cccnc1
[53] COc1ccc(CN(CCc2c[nH]c3ccccc23)C(=O)CN(CC(C)C)C(=O)Nc2ccc(F)cc2F)cc1OC
[54] CC(NC1=NCCN1)C(=O)O (centres undefined)
Assay by compound,49,50,51,52,53,54
NPYLR7 ag,6,11,11,5,0,-18
NPYLR7 ag max-min,5,6,16,2,5,-16

[55] COCC(C)(CCO)NC(=O)Nc1cccc(-c2cccs2)c1 (centres undefined)
[56] COC(C)(C)C12CC(O)(C(C)C)ON1C1CCCCC1N2O (centres undefined)
[57] CC=CCn1c(SCC(N)=O)nc2c1c(=O)[nH]c(=O)n2C
[58] Cn1cnc2c1c(=O)n(CCCn1nc(C(=O)O)c3ccccc3c1=O)c(=O)n2C
[59] CCOC(=O)C1CCCN(C(=O)c2csc(CSc3nnc(-c4ccco4)n3-c3ccc(Cl)cc3Cl)n2)C1 (centres undefined)
[60] CCc1cc(-c2n[nH]c(C)c2-c2nc(C)cs2)c(O)cc1OC
Assay by compound,55,56,57,58,59,60
NPYLR7 ag,0,-1,2,9,-5,-10
NPYLR7 ag max-min,7,-8,10,13,-4,-16

[61] COc1ccc(Cn2c(=O)c3oc4ccccc4c3n(CC(=O)Nc3ccc(C)cc3C)c2=O)cc1
[62] Cc1cc(C)n(CC(=O)NCC(=O)Nc2ccc(Br)cc2C)n1
[63] Cc1noc(C)c1C(=O)N1CCN(C(c2ccccc2)c2ccc(Br)cc2)CC1 (centres undefined)
[64] Cc1cc(C)n(-c2cc(N3CCN(C(=O)/C=C/c4ccccc4)CC3)ncn2)n1
[65] O=C(C1CCCO1)N1CCN(c2nc(N3CCCC3)nc(-n3ccnc3)n2)CC1 (centres undefined)
[66] O=C(CCc1ccc2c(c1)OCO2)NCc1ccc(-n2cncn2)nc1
Assay by compound,61,62,63,64,65,66
NPYLR7 ag,-11,3,-3,-8,-18,2
NPYLR7 ag max-min,-14,3,-12,-11,-23,-6

Reformatted as tab-separated lines: entries from further up.
nr	mol	NPYLR7 ag	NPYLR7 ag max-min
62	Cc1cc(C)n(CC(=O)NCC(=O)Nc2ccc(Br)cc2C)n1	3	3
66	O=C(CCc1ccc2c(c1)OCO2)NCc1ccc(-n2cncn2)nc1	2	-6

Carrying on:
[67] O=C(Nc1c[nH]c2ccccc12)NC1CCCC1
[68] O=C(NCC1(Cn2cccn2)CC1)c1n[nH]c(=O)c2ccccc12
[69] O=C(NCc1cccc(CO)c1)C1CCCCC1C(=O)N1CCCC1 (centres undefined)
[70] O=C(Nc1ccc(O)cc1)c1cccc(S(=O)(=O)N2CCOCC2)c1
[71] COc1c(N)cc(C(C)(C)C)cc1C(C)(C)C
[72] COc1ccc(CC(=O)NC2CCSc3ccc(Cl)cc32)cc1OC (centres undefined)
Assay by compound,67,68,69,70,71,72
NPYLR7 ag,-3,5,-5,5,-9,-2
NPYLR7 ag max-min,-3,2,-6,4,-4,19

[73] CC(C)(C)N=Cc1nc(-c2ccccc2)oc1O
[74] O=c1cc[nH]c2cc(Cl)c(Br)cc12
[75] COCCn1cc(C(=O)N2CCc3ccccc3C2)c2nn(-c3ccccc3)c(=O)c-2c1
[76] CCN(Cc1ccc(Cl)s1)C(=O)C1CC(=O)N(C2CCS(=O)(=O)C2)C1 (centres undefined)
[77] COC(=O)c1cccc(OCC(O)Cn2c(C)[n+](C)c3ccccc32)c1 (centres undefined)
[78] CSc1cccc(NC(=O)Cc2csc(N3CCCC3=O)n2)c1
Assay by compound,73,74,75,76,77,78
NPYLR7 ag,1,6,6,5,3,6
NPYLR7 ag max-min,-1,4,4,3,0,7

[79] CS(=O)(=O)CCNC(=O)N1CCCC2CCCC21 (centres undefined)
[80] Cc1nc(C(=O)N2CCCC(CCC(=O)N3CCN(c4ccccn4)CC3)C2)cs1 (centres undefined)
[81] CCOC(=O)c1ccc(OC2CC3CCC(C2)N3C(=O)c2ccc(CSc3nncn3C)cc2)cc1 (centres undefined)
[82] O=C1C2CCCCC2C(=O)N1CCC(=O)n1ccccc1=NC1CCCCC1 (centres undefined)
[83] CC1(C(=O)NCc2ccc(Cl)cc2)CCN1C(=O)Cc1ccc(Cl)cc1Cl (centres undefined)
[84] O=c1oc2ccccc2cc1-c1nnc(Nc2ccc(Cl)cc2Cl)s1
Assay by compound,79,80,81,82,83,84
NPYLR7 ag,2,21,2,1,13,-5
NPYLR7 ag max-min,-1,9,-6,8,12,-9

[85] COC(=O)Nc1nc2ccc(C(=O)c3ccccc3)cc2[nH]1
[86] CCOC(=O)CNC(=O)CSc1ccc2nnc(CCNC(=O)c3ccc(F)cc3)n2n1
[87] CCOC(=O)c1nn(-c2ccc(F)cc2)c(=O)c2c(NC(=O)COc3ccccc3)scc12
[88] CC1C(=O)N(c2ccc(Br)cc2)CCN1Cc1ccccc1F (centres undefined)
Assay by compound,85,86,87,88
NPYLR7 ag,-3&-6&1,5,5,1
NPYLR7 ag max-min,-8&-9&-4,-9,1,14

Some of the compounds tested; rates above refer to the full screens.
